# MARV entry inh: blocks Marburg virus binding to or entry into cells | Marburg virus pseudotyped entry inhibition, cell reporter; control for the full effect not named in the record; about a third of the inactives were read at about 46 µM | actives 1.8% (n = 300,000) | Potency, µM (highest dose often 37.8 µM), without a hit: at the top dose activity change, negative = inhibition, most hits filed as inhibitors; active = well fitted inhibition curve with a large enough effect; inconclusive = small, poorly fitted or top-dose-only effect, or effect the other way; inactive = flat fitted curve, though single readings scatter; tested in HEK293 cells; about a fifth of its hits are not listed in these tables; also: % is scaled to controls: 0 for no effect and ±100 for the full control effect; luciferase read-out
# RE007 growth inh: less growth of the S. pombe RE007 Vpr strain; S. pombe RE007 Vpr strain, BacTiter-Glo ATP luminescence, 24 h; control for the full effect not named in the record; Potency, µM (highest dose often 92.2 µM), for the others: at the highest dose activity change, negative = less growth; actives 0.21% (n = 360,000); AID 651644; active = well fitted falling curve with a large enough effect; inconclusive = small, poorly fitted or top-dose-only effect; inactive = no such curve, though single readings can be large or run the other way;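 also: % is scaled to controls: 0 for no effect and ±100 for the full control effect; nearly all actives have a fitted effect of over 50% in size; the assay follows cell death caused by Vpr and the record does not say whether a fall means rescue or toxicity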
#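 Fission yeast strain RE007, carrying one chromosomally integrated HIV-1 vpr copy, was seeded at OD 0.01 in PMG+AL medium with 23 nL pinned compound. After 24 h at 30 °C and 99% humidity, viability was read by BacTiter-Glo luminescence.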
# StopGo reporter: lowers the luciferase signal of an FMDV 2A StopGo reporter. actives 1.2% (n = 410,000). Potency, µM (doses to about 57.9 µM), without a hit: at the top dose signal change, negative = less light. AID 1159524. human cells with a luciferase reporter of 2A StopGo recoding; control for the full effect not named in the record; active = well fitted falling curve with a large enough effect; inconclusive = small, poorly fitted or top-dose-only effect; inactive = no such curve, though single readings can be large or run the other way; tested in HEK293T cells; also: % is scaled to controls: 0 for no effect and ±100 for the full control effect; nearly all actives have a fitted effect of over 45% in size; luciferase light after 4 h
# SARS PLpro yeast: SARS-CoV PLP inhibition in yeast | actives 0.19% (n = 330,000) | S. cerevisiae expressing SARS-CoV PLpro, growth rescue; control for the full effect not named in the record | Potency, µM (top dose mostly 32.9 µM), for inactives: top-dose activity, positive = growth rescue; also: 0% is about no effect; nearly all actives have a fitted effect of over 55% in size; growth read by luminescence after 48 h
# Cruzain inh noDet: cruzain (T. cruzi) inhibition without detergent. AID 1476. actives 2.3% (n = 200,000). Potency, µM, without a hit: max response, negative = inhibition, hits mostly inhibitors. purified cruzain, Z-FR-AMC fluorescence, no detergent; active = well fitted curve in the direction sought with a large enough effect; inconclusive = small, poorly fitted or top-dose-only effect, or another doubt; inactive = no such curve, though single readings can be large; an effect the other way counts as inactive or inconclusive;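 also: plate controls were enzyme without inhibitor for no effect and buffer without enzyme for full effect; nearly all actives have a fitted effect of over 40% in size; top concentration of the series not given in the record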
# Target sequence (P25779 123-467 limits assumed): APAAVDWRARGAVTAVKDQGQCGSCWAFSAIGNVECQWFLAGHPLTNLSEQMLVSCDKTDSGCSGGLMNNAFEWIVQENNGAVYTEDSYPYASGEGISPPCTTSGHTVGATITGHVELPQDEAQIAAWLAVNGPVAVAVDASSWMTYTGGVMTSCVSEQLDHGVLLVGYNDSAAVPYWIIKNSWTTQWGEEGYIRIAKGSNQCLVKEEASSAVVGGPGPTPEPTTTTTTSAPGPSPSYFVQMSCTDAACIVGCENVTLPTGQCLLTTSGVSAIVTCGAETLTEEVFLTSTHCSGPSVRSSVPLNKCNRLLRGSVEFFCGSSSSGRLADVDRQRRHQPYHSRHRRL
#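 Purified cruzain at 1.5 nM, pre-incubated 15 min with compound at room temperature in 100 mM sodium acetate pH 5.5, 5 mM DTT, 0.00005% Triton X-100. Reaction started with 2 uM Z-FR-AMC; AMC fluorescence increase over 60 s gives rate.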
# LASV entry inh: inhibitors of Lassa virus binding or cell entry; Lassa virus pseudotype entry inhibition, cell reporter; control for the full effect not named in the record; Potency, µM (doses to about 37.9 µM), without a hit: top-dose activity change, negative = inhibition, hits mostly inhibitors; actives 1.2% (n = 300,000); active means well fitted inhibition curve with a large enough effect; inconclusive means small, poorly fitted or top-dose-only effect, or effect the other way; inactive means flat fitted curve, though single readings scatter; tested in HEK293 cells; also: % is scaled to controls: 0 for no effect and ±100 for the full control effect; nearly all actives have a fitted effect of over 50% in size; luciferase read-out
# NS1 inh: blocks influenza NS1 protein function. S. cerevisiae slowed by influenza A NS1, growth recovery by OD600. Potency, µM (highest dose often 46.1 µM), without a hit: at the highest dose activity, positive = more growth. actives 0.4% (n = 270,000). AID 2326; also: actives are rising curves; nearly all actives have a fitted effect of over 50% in size
#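 OD600 was taken as the measure of yeast growth restored by compound in an NS1-expressing S. cerevisiae strain. Cells had been washed out of glucose medium and diluted 1:100 into galactose -URA medium, pH 6.0.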
# Cruzain Triton: inhibitors of Trypanosoma cruzi cruzain with detergent. P25779. purified cruzain, Z-FR-AMC fluorescence, 0.01% Triton. Potency, µM, for the others: max response, negative = inhibition, usual class: inhibitors. actives 0.43% (n = 200,000); active = well fitted curve in the direction sought with a large enough effect; inconclusive = small, poorly fitted or top-dose-only effect, or another doubt; inactive = no such curve, though single readings can be large; an effect the other way counts as inactive or inconclusive;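 also: plate controls were neutral wells for no effect and buffer without enzyme for full effect; nearly all actives have a fitted effect of over 40% in size; top concentration of the series not given in the record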
#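 Enzyme 1.5 nM, Z-FR-AMC 2 uM, NaOAc 100 mM pH 5.5, DTT 5 mM, Triton X-100 0.01%; 15 min RT compound preincubation; kinetic ex360/em450, 60 s delta.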
# * hit, by the source's call; ? = inconclusive; . = no result given; & = joins results of further samples; [ ] = remark or other dose. Unless noted, calls follow the shape of the dose curve; as a rule, active means well fitted rising curve with a large enough effect; inconclusive means small, poorly fitted or top-dose-only effect; inactive means no such curve, though single readings can be large or run the other way. Potency is read from the fitted curve at half-maximal effect.
canonical_smiles | MARV entry inh | RE007 growth inh | StopGo reporter | SARS PLpro yeast | Cruzain inh noDet | LASV entry inh | NS1 inh | Cruzain Triton
Cc1ccc(S(=O)(=O)N(C)c2ccc(OCC(=O)NC3=NCCS3)cc2)cc1 | ? | 5% | -22% | 2% | . | 1% | . | .
CCOC(=O)c1cccc(NC(=O)CSc2nc(N)cc(N)n2)c1 | 2%[46.1 µM] | -5% | -16% | -3% | 16% | 2% | ? | 3.1%
CC1CCCN(C2=C(Cl)C(=O)N(c3cccc(Cl)c3)C2=O)C1 (stereo not drawn) | ? | -19% | -22% | 1% | -8% | 0% | -18% | -8.4%
N#Cc1ccc(OCC(=O)NCCCn2ccnc2)cc1 | -5%[46.1 µM] | -13% | -1% | 5% | . | 6%[46.1 µM] | . | .
COc1ccc(NC(=O)CN(Cc2ccccc2)S(C)(=O)=O)c(OC)c1 | 13% | 14% | 1% | 15% | -3% | 1% | -3% | 1.4%
CCOc1cc(C(=S)N2CCC(O)CC2)ccc1OS(=O)(=O)c1ccc(Br)cc1 | ? | -1% | . | -10% | ? | -2% | -4% | 0.0%
CC(C)Cc1nn2c(=O)cc(COC(=O)c3ccccc3NC(=O)C3CCCCC3)nc2s1 | . | . | 1% | . | 2% | ? | . | 0.7%
CCn1cc(/C=C(\NC(=O)c2ccccc2Cl)C(=O)NCCN2CCOCC2)c2ccccc21 | . | -11% | -21% | 0% | . | . | -4% | .
O=C(NCc1ccc(Cl)cc1)c1cc(=O)[nH]c2ccc(S(=O)(=O)N3CCOCC3)cc12 | ? | 1% | -1% | 0% | . | 10% | 4% | .
CCCOC(=O)c1ccc(NC(=O)c2cnccn2)cc1 | 28% | -1% | 14% | -3% | 1% | 0% | -21% | -3.6%
COc1ccc(N(CC(=O)NCc2ccncc2)S(=O)(=O)c2ccc(C)c([N+](=O)[O-])c2)cc1 | . | -5% | -2% | 1% | . | . | -6% | .
CCCCn1c(N)c(N(CC(C)C)C(=O)C2CCN(S(=O)(=O)c3ccc(F)cc3)CC2)c(=O)[nH]c1=O | -5% | 9% | -7% | 8% | . | 11% | 2% | .
CCN1CCN(c2nc3ccccc3nc2C(C#N)S(=O)(=O)c2ccc(C)c(C)c2)CC1 (stereo not drawn) | ? | 18% | 7% | 0% | ? | 1% | 0% | -1.0%
NC(=O)c1nn(-c2ccccc2)nc1NC(=O)CN1CCOCC1 | . | -10% | -18% | 2% | . | . | -3% | .
CCC(=O)N1CCc2cc(S(=O)(=O)NCCC(=O)N3CCN(c4cccc(C)c4)C(C)C3)ccc21 (stereo not drawn) | . | -5% | ? | 0% | . | . | -10% | .
COC(=O)c1ccc(Cl)cc1NC(=O)N1CC(C)Oc2ccccc21 (stereo not drawn) | . | . | 0% | . | 3% | 1%[46.1 µM] | . | -3.8%
CSc1ccc(CCNC(=O)Cn2ncc3c(=O)oc4ccc(C)cc4c32)cc1 | 13%[46.1 µM] | . | ? | . | -1% | -7%[46.1 µM] | . | -2.0%
COCCNC(=S)N/N=C(\C)c1ccc(O)cc1 | 0% | 18% | -8% | 14% | 9% | -30% | -5% | -5.0%
Cc1c(-c2ccccc2)nc(N)c(C#N)c1-c1cccnc1 | . | 8% | -10% | 0% | . | . | 2% | .
CC(C)NC(=O)c1onc(CSc2ccccn2)c1C(=O)NC(C)C | . | 3% | -8% | 1% | . | . | -1% | .
CCOc1ccc(S(=O)(=O)N2CCN(C(=S)NC3CC3)CC2)cc1 | -11% | -10% | -29% | -2% | . | -18% | . | .
Cc1nc(C)c(N)c(=O)[nH]1 | -6%[46.1 µM] | 5% | 0% | -7% | . | -1% | . | .
O=C(O)c1cccc2c1Cc1cc(Cl)ccc1-2 | ? | 6% | 18% | . | . | ? | . | .
Cc1ccc(-c2nsc3c(N4CCC(C(N)=O)CC4)ncnc23)cc1 | 25% | 4% | -6% | 1% | 8% | ? | -2% | 8.5%
COc1ccc(-c2cccc([C@H]3[C@@H]4C=CCC[C@@]4(C)C(=O)N3Cc3ccccc3)c2)cc1 | . | -4% | ? | -5% | . | . | ? | .
O=C1CC(c2ccccc2)CC(O)=C1C=NC1CCCC1 (stereo not drawn) | 8% | 1% | . | 0% | 0% | 1% | -4% | 2.2%
COc1ccc(C(=O)NC2CC(C)(C)Cc3c2cnn3-c2ccccc2)c(OC)c1 (stereo not drawn) | ? | 2% | -9% | 2% | . | ? | 7% | .
Cc1csc2ncc(C(=O)NCCC(c3ccccc3)c3ccccc3)c(=O)n12 | -19%[46.1 µM] | 3% | -10% | -12% | . | -18%[46.1 µM] | 5% | .
Cc1ccc(C(=O)NCc2ccccn2)cc1S(=O)(=O)N1CCCCC1 | 5% | 4% | 5% | 6% | . | ? | 2% | .
CCc1ccc(NC(=O)CSc2nc3ccccc3c(=O)n2CCNC(C)=O)cc1 | . | . | -25% | . | 1% | -1%[46.1 µM] | . | 1.8%
CN(C(=O)c1cc(-c2ccc3c(c2)OCO3)on1)c1ccccc1 | ? | -7% | 38%[activator] | -13% | . | ? | -13% | .
Cc1cccc(OCCNC(=O)c2cncc(Br)c2)c1 | 16% | 14% | -4% | -13% | 12% | 6% | -16% | 4.4%
Cc1nn(Cc2ccc(Cl)cc2)c(C)c1N | 4% | 13% | -3% | 4% | -12% | -2% | 2% | -0.1%
CCOC(=O)c1c(C)nn(Cc2cccc(Cl)c2)c1N | 7% | 4% | . | -18% | -6% | -2% | ? | -1.9%
CCc1cccc(CC)c1NC(=O)C1CN(S(=O)(=O)c2ccccc2)CCN1S(=O)(=O)c1ccccc1 (stereo not drawn) | ? | 7% | -9% | -15% | 14% | -23% | ? | -3.5%
O=C(Cn1c(=O)oc2cc(S(=O)(=O)N3CCCCC3)ccc21)N1CCc2ccccc2C1 | . | 11% | -26% | -5% | 8% | . | 6% | -0.4%
O=C(CSc1nc2ccsc2c(=O)n1-c1ccccc1)N1CCCC1 | 16% | 8% | 4% | -3% | -6% | -13% | 10% | 2.1%
Cc1cc(NC(=O)c2cc(-c3ccncc3)nc3ccccc23)ccc1Br | ? | -1% | ? | -10% | . | ? | . | .
CC(C)(Oc1ccc(Cl)cc1)C(=O)Nc1cccc(-c2cn3cccnc3n2)c1 | . | . | -13% | . | 27% | -8%[46.1 µM] | . | -30%
COc1ccccc1C/C(N)=N/OC(=O)c1ccc(C)c([N+](=O)[O-])c1 | ? | -16% | -6% | -32% | -4% | ? | -175% | -5.0%
O=C(CC1C(=O)NCCN1Cc1ccc(-c2ccccc2)cc1)NCCCn1ccnc1 (stereo not drawn) | . | -1% | -9% | -1% | . | . | -3% | .
Cc1cccc(-c2noc(CCC(=O)NC3CCCC3)n2)c1 | 10%[46.1 µM] | -20% | 10% | -1% | . | 15% | -1% | .
O=C(c1cc(S(=O)(=O)N2CCOCC2)ccc1Cl)N1CCCCC1CO (stereo not drawn) | 1%[46.1 µM] | -3% | 13% | 4% | . | -3%[46.1 µM] | . | .
CCN(c1ccccc1)c1nc2ccsc2c(=O)s1 | 6% | -3% | 5% | -26% | -1% | -21% | -48% | -3.7%
O=C(CSc1nnc(COc2ccccc2F)n1-c1ccccc1)NC1CCS(=O)(=O)C1 (stereo not drawn) | 3% | 16% | -9% | ? | 3% | 2% | 3% | 1.3%
COCCCN1CC(=O)N2C(c3cccc(C)c3)c3[nH]c4ccccc4c3C[C@H]2C1=O (stereo partly drawn) | -10%[46.1 µM] | -12% | 5% | 1% | . | 5% | -5% | .
COc1ccc(NC(=O)CC2C(=O)NCCN2C(=O)c2ccc(N(C)C)cc2)cc1 (stereo not drawn) | -23% | 3% | 0% | 0% | . | ? | -1% | .
O=C(N/N=C/c1ccncc1)c1cnccn1 | 6%[46.1 µM] | 5% | 11% | -1% | . | 18% | 5% | .
COc1ccc(-c2nnc(-c3ccc(C)cc3)o2)cc1 | ? | -10% | -11% | -1% | . | 21%[46.1 µM] | -9% | .
CCOC(=O)CC1=C(C(=O)OCC)C(c2ccc(OC)cc2OC)C(C#N)=C(N)O1 (stereo not drawn) | -1% | 3% | -3% | -10% | 10% | 1% | -9% | -5.6%
CC1(C)CC(=O)C2=C(C1)OC(N)=C(C#N)C21CCN(Cc2ccccc2)CC1 | ? | 0% | -13% | 10% | -9% | -19% | -4% | 0.9%
CCOc1ccc(/C=N/O)cc1 | 7% | -7% | 17% | -4% | 1% | . | 4% | -0.2%
O=C(CCS(=O)(=O)c1ccc(Cl)cc1)N1CCN(S(=O)(=O)c2cccs2)CC1 | 7%&7% | -4% | -26% | 4% | -4% | -2% | -13% | -0.1%
Cc1nnc(SCC(=O)O)s1 | 3%[46.1 µM] | 26% | -4% | 2% | . | -2% | 0% | .
CC(=O)Nc1cccc(C(=O)NCc2ccc3c(c2)CCN3C(C)=O)c1 | . | . | 20% | . | 0% | -1%[46.1 µM] | . | 0.8%
CC1CCCN(CC(=O)N2c3ccccc3Sc3ccccc32)C1 (stereo not drawn) | . | 1% | -25% | -2% | . | . | -3% | .
CCN1CCN(CCCNC(=O)c2cc3c(=O)oc4ccc(C)cc4c3s2)CC1 | . | -8% | -4% | -4% | . | . | -14% | .
CCN1CCN(C(c2cccs2)C(C)NC(=O)C(=O)N2CCCCC2)CC1 (stereo not drawn) | . | 1% | -4% | 0% | . | . | 13% | .
O=C(Cn1cc(C(F)(F)F)cc(Cl)c1=O)NCc1ccc(F)cc1 | -14%[46.1 µM] | 18% | 44%[activator] | 0% | . | ? | 4% | .
COc1ccc(Nc2nc(-c3c[nH]c4ccccc34)cs2)cc1 | 1% | -10% | 25% | -27% | ? | 9% | 19% | -5.6%
Cc1ccc(N2CC(C(=O)NCCN3CCOCC3)CC2=O)cc1 (stereo not drawn) | 10% | -10% | 31%[activator] | -4% | . | 6% | 12% | .
C/C(=N\NC(N)=O)C1CC(CC(C)C)C(=O)O1 (stereo not drawn) | ? | 11% | -7% | 0% | . | 10%[46.1 µM] | . | .
O=C(Nc1ccc2oc(-c3ccncc3)nc2c1)c1c(F)c(F)c(F)c(F)c1F | -5% | 41% | 8% | 0% | 10µM* | -6% | 7% | 3.5%
